Source: PubChem BioAssay
Bead autofluor – flagged as autofluorescent in microsphere protease counterscreen; compound autofluorescence counterscreen, microsphere flow cytometry; hits give high values; fluorescence intensity (test concentration not listed); 360,000 tested, 3.1% active; AID 624483;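 active means at least 3 SD above the mean of all compounds, about 16000 in these data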;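 further: 100 nL of 1 mM stock went into each well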
An asterisk follows results filed as active. A portion of the library (hit frequency here may not be typical).

SMILES | Bead autofluor
CCN(C)C1CN(Cc2cn(CCCOC)nn2)S(=O)(=O)C1 (stereo unspecified) | 7227
COc1cc(O)c(C=NN2C(=O)CSC2=S)c(OC)c1 | 3523
O=C1c2ccccc2C(c2nnnn2Cc2ccccc2)N1CCCN1CCOCC1 (stereo unspecified) | 5957
C[C@@H]1CN([C@H](C)CO)C(=O)c2c(c3ccccc3n2C)-c2ccccc2CO[C@H]1CN(C)C(=O)c1cc(Cl)cc(Cl)c1 | 3900
CC1(C(=O)NS(=O)(=O)c2cccc(Cl)c2)CCN1C(=O)CC1CCCC1 (stereo unspecified) | 3838
CCOC(=O)[C@]12Cc3cc(Cl)ccc3[C@H]1N(C)C(=O)c1ccccc12 | 6284
COc1ccc(CCNC(=O)C(=O)c2cn(CC(=O)N3CCCC3)c3ccccc23)cc1OC | 3680
CCOc1ccc(-c2cc(C(=O)NCc3cc(C(F)(F)F)cc(C(F)(F)F)c3)[nH]n2)c(C)c1 | 2837
COc1ccc(C(O)c2nc(-c3cc4ccccc4o3)cs2)cc1 (stereo unspecified) | 3751
COc1ccc(NC(=O)C2Cc3c(-c4cccc(F)c4)ccnc3O2)cc1 (stereo unspecified) | 2815
CCc1nc2ccc(C(=O)N(C)CCCN(C)C)cn2c1N(C)C(=O)C1CCCCC1 | 3794
COCOCCn1cc(CN2CCS(=O)(=O)N(Cc3ccc(-c4ccc(F)nc4)cc3)C(C)C2=O)nn1 (stereo unspecified) | 3885
CCCS(=O)(=O)NC(=O)C1(C)CCN(C(=O)c2cc3ccccc3s2)C1 (stereo unspecified) | 3847
O=C(NCCc1ccccc1)c1cccc2c(-c3cccnc3)coc12 | 3770
Cc1cccc(NC(=O)C(=O)NCC2CCCN2S(=O)(=O)c2cccs2)c1 (stereo unspecified) | 5812
C[C@@H](c1ccccc1)N1C[C@H](COCc2ccccc2)Oc2cc(N3CC[C@@H](N(C)C)C3)ccc2S1(=O)=O | 5514
N#Cc1nnn2c1nc(N)c1c(Cl)cccc12 | 6242
COc1c(C)cc(C(O)c2ncc(-c3ccccc3Cl)[nH]2)cc1C (stereo unspecified) | 3687
O=c1c2c([nH]n1-c1ccccc1)C[C@@H](C1CCCCC1)O[C@H]2c1ccc(F)cc1 | 6010
CCC(c1nnnn1-c1ccc2c(c1)OCCO2)N1CCC(n2c(=O)[nH]c3ccccc32)CC1 (stereo unspecified) | 5862
CC(=O)Nc1cc(-c2ccc(N3CCN(C)CC3)cc2)cn2c(-c3ccc(F)cc3)cnc12 | 3847
COc1cccc2c1OC1(N3CCOCC3)CCCCC1C2C[N+](=O)[O-] (stereo unspecified) | 3968
CSc1nc(N)c(C(=O)N(c2ccccc2)c2ccccc2)s1 | 3624
CCC(=O)NC(c1cccs1)c1cc([N+](=O)[O-])c2cccnc2c1OC (stereo unspecified) | 2369
CSCCC(c1nnnn1Cc1ccccc1)N1CCN(C/C=C/c2ccccc2)CC1 (stereo unspecified) | 6074
CN(C)CCNC(=O)C(=O)NCC1OCCN1S(=O)(=O)c1ccc(F)cc1 (stereo unspecified) | 3894
CCc1nc2ccc(C(=O)NCCOc3ccc(OC)cc3)cn2c1N(C)CCCc1ccccc1 | 3682
CC(C)c1ccc(NC(=O)Nc2nc(CN)cs2)cc1 | 2993
COC(=O)[C@]12CCCCC=C1N(Cc1cccc3ccccc13)C(=O)[C@H](CC(=O)NCc1cccc(C(F)(F)F)c1)C2 | 4196
CC(C)CN1C(=O)C(=O)N(CC(=O)NCCCc2ccccc2)C1=O | 3862

Part of the list above, with each value named:
canonical_smiles: COC(=O)[C@]12CCCCC=C1N(Cc1cccc3ccccc13)C(=O)[C@H](CC(=O)NCc1cccc(C(F)(F)F)c1)C2
  Bead autofluor: 4196

canonical_smiles: CC(C)CN1C(=O)C(=O)N(CC(=O)NCCCc2ccccc2)C1=O
  Bead autofluor: 3862

The list continues.
SMILES | Bead autofluor
COc1ccc(C(=O)CC(C(=O)O)c2ccc3c(c2)OCO3)cc1OC (stereo unspecified) | 3992
C=CCNC(=S)N1CCC2CC1c1c(Cl)cccc12 (stereo unspecified) | 3753
CCc1nc2c(OCc3ccccc3OC)cccn2c1N(C)C(=O)C(C)C | 4004
Cc1nc2ccccn2c1P(=S)(c1ccccc1)c1ccccc1 | 2808
Cc1cc(C(=O)Nc2cccc3ccccc23)oc1C | 3884
CN(C)CCN1CCN([C@H]2CS(=O)(=O)N[C@@H]2COCc2ccccc2)CC1 | 4504
N#Cc1cc(NC(=O)c2ccc(Cl)cc2)ccc1Sc1ccccc1 | 4887
CC(=O)Nc1cccc(-c2ccnc3c2CC(C(=O)Nc2cccc(N(C)C)c2)O3)c1 (stereo unspecified) | 3567
CCN(CC)C(=O)c1cccc(-c2csc(C(O)(c3ccccc3)C(F)(F)F)n2)c1 (stereo unspecified) | 3663
O=S1(=O)CC(N2CCCCC2)CN1CCc1ccccc1 (stereo unspecified) | 4179
CC(=O)Oc1ccc(Cn2c(C)c(C(=O)NC3CC3)sc2=O)cc1 | 4942
CCc1nc2ccc(C(=O)Nc3ccc(OC)c(OC)c3)cn2c1N(CCC(C)C)CCN(C)C | 3548
O=C(c1cc2c(c(-c3cccc(-c4ccncc4)c3)n1)[C@H](CCO)N(C(=O)c1ccc3c(c1)OCO3)C2)N1CCOCC1 | 5477
c1cc(-c2ccc3[nH]ccc3c2)n2ccnc2c1 | 3503
CN(C)c1ccc(C=Cc2ccnc3ccccc23)cc1N | 4513
COc1cccc(C(=Cc2ccc([N+](=O)[O-])cc2)C(=O)O)c1 | 3443
COc1ccccc1Cc1c(-c2ccc(F)cc2)nc2ccc(Cl)cn12 | 6325
COc1ccccc1-c1nnc(NC(=O)C2CCCN2S(=O)(=O)c2cccs2)o1 (stereo unspecified) | 2911
O=C(CC[C@H]1O[C@@H](n2ccc(=O)[nH]c2=O)[C@H](O)[C@@H]1O)NCc1ccc2c(c1)OCO2 | 4381
CC(C)NC(=O)C1Cc2c(-c3ccccc3Oc3ccccc3)ccnc2O1 (stereo unspecified) | 2810
O=C(NCCN1CCC(n2c(=O)[nH]c3ccccc32)CC1)c1ccc(F)cc1F | 4478
O=C(NC(c1ccc(Cl)cc1)c1cnccn1)C1CCN(CCCOc2ccccc2)CC1 (stereo unspecified) | 4197
CCCS(=O)(=O)NC(=O)C1(C)CCN(C(=O)c2ccc(F)cc2Cl)C1 (stereo unspecified) | 3715
COc1ccc(C(O)c2ncc(-c3ccccc3)[nH]2)cc1F (stereo unspecified) | 2772
Cc1ccccc1-c1nc(NC(C)C)nc2cc(-c3ccccc3)sc12 | 2962
O=S1(=O)CC(N2CCN(c3ncccn3)CC2)CN1Cc1ccc(F)cc1 (stereo unspecified) | 4590
Cc1cccc(C)c1NC(=O)CN1CCN(C(=O)c2cc(C3CC3)nn2-c2ccccc2)CC1 | 3162
Cc1ccc2c(=O)n3c(nc2c1)C(Cc1ccc(O)cc1)NC(=O)c1cccnc1-3 (stereo unspecified) | 3852
COc1ccc(Cc2c(C3CCCCC3)nc3c(Cl)cc(C(F)(F)F)cn23)c(C)c1 | 4670
CC(O)(c1ccc(F)c(F)c1)c1nc(-c2ccoc2)cs1 (stereo unspecified) | 2941

Looked up above.
Bead autofluor, `COc1ccc(C(=O)CC(C(=O)O)c2ccc3c(c2)OCO3)cc1OC` (stereo unspecified) stands at 3992
Bead autofluor, `Cc1ccccc1-c1nc(NC(C)C)nc2cc(-c3ccccc3)sc12` stands at 2962
Bead autofluor, `O=C(c1cc2c(c(-c3cccc(-c4ccncc4)c3)n1)[C@H](CCO)N(C(=O)c1ccc3c(c1)OCO3)C2)N1CCOCC1` stands at 5477
Bead autofluor, `O=S1(=O)CC(N2CCN(c3ncccn3)CC2)CN1Cc1ccc(F)cc1` (stereo unspecified) stands at 4590

(list continues)
SMILES | Bead autofluor
CC(C)CC(N)c1csc(Nc2ccc(C(=O)NCCO)cc2)n1 (stereo unspecified) | 3715
COc1cccc(C(=O)O)c1OS(=O)(=O)c1ccc(C)cc1 | 3794
CN1CCN(C(=O)c2cc3c(c(-c4cccc(C#CC(C)(C)O)c4)n2)[C@H](CCO)N(S(=O)C(C)(C)C)C3)CC1 (stereo partly specified) | 4279
CCCNC(=O)C1(C)CCCN(Cc2c(F)cccc2F)C1 (stereo unspecified) | 3683
CC1(C)CC(=O)C=C(c2ccc(-c3ccccc3)cc2)C1=O | 3839
CN(CCO)C(=O)c1nc[nH]c1C(=O)N(C)Cc1ccccc1 | 6067
CCC(=O)N1CCCC1(C)C(=O)NCc1ccc(SC)cc1 (stereo unspecified) | 3906
Cn1c(=O)c2cc(NC(=O)CCc3ccccc3)ccc2n1Cc1cccc(C(F)(F)F)c1 | 3567
COc1ccc(C2=NN(C(=O)c3ccco3)C(c3cccs3)C2)cc1OC (stereo unspecified) | 3686
COc1ccccc1N1CCN(C(=O)CN(C)S(=O)(=O)c2ccc(C)cc2)CC1 | 3551
COc1ccc(Nc2nc(NC(C)C)nc3ccsc23)cc1OC | 3593
COc1ccc(S(=O)(=O)N(C)[C@H]2C[C@H]3c4cc(N5CCN(C)CC5)ccc4CCN3C(=O)[C@H]2[C@H](C)O)cc1 | 3027
CCCS(=O)(=O)NC(=O)C1(C)CCN1C(=O)Cc1ccc(Cl)cc1Cl (stereo unspecified) | 4006
O=S1(=O)CC(N2CCN(CCO)CC2)CN1Cc1cn(Cc2ccc(Cl)cc2)nn1 (stereo unspecified) | 5499
Cc1ccccc1-c1ccc2c(c1)O[C@H](CN(C)C(=O)C1CC1)[C@@H](C)CN([C@@H](C)CO)S2(=O)=O | 4084
Cc1cnc(C(=O)N(c2ccc(N3CCOCC3)cc2)C2C(=O)Nc3ccccc3N=C2c2ccc(F)cc2)cn1 (stereo unspecified) | 6097
Cc1c(Br)cccc1NC(=O)C1(C)CCN1Cc1ccccc1OC(F)F (stereo unspecified) | 3045
O=C1CCCCC1C1(O)C(=O)Nc2ccccc21 (stereo unspecified) | 3491
Cc1cc2nc(-c3ccccc3)c(Cc3ccsc3)n2c(C)c1Br | 4299
OC(c1ccc(F)c(F)c1)c1nc(-c2cc(F)cc(F)c2)cs1 (stereo unspecified) | 2858
O=C(Nc1ccc(F)c(Cl)c1)C1Cc2c(-c3ccco3)ccnc2O1 (stereo unspecified) | 3059
C[C@H](CO)N1C[C@H](C)[C@@H](CN(C)S(=O)(=O)c2ccc(Oc3ccccc3)nc2)OCc2cnnn2CCCC1=O | 3733
CSc1ccc(/C=C/C(=O)OCC(=O)NC2CCCCCC2)cc1 | 3565
O=C(NCc1cccs1)c1ccc(CS(=O)Cc2ccc(Cl)cc2)o1 (stereo unspecified) | 3749
Cc1cccc(C)c1NC(=O)CN(Cc1ccccc1)Cc1ccccc1 | 4462
CC(=O)Nc1ccc(C(=O)N2CCCC(c3cc(C(=O)Nc4ccccc4)no3)C2)cc1 (stereo unspecified) | 3489
CCCCn1nnnc1C1(C)CCC(=O)N1CCOc1ccccc1 (stereo unspecified) | 4262
COc1ccc2c(CN3CCN(c4ccc(Cl)c(Cl)c4)CC3)cc(=O)oc2c1 | 4495
C[C@H]1CN([C@@H](C)CO)S(=O)(=O)c2ccc(Br)cc2O[C@@H]1CN(C)S(=O)(=O)c1ccccc1F | 4531
COc1cccc(NC(=O)N(C)C[C@@H]2OCc3cn(nn3)CCCC(=O)N([C@H](C)CO)C[C@H]2C)c1 | 3428

Part of the list above in a different format.
O=C(NCc1cccs1)c1ccc(CS(=O)Cc2ccc(Cl)cc2)o1 (stereo unspecified)
- Bead autofluor = 3749

Cc1cccc(C)c1NC(=O)CN(Cc1ccccc1)Cc1ccccc1
- Bead autofluor = 4462

CC(=O)Nc1ccc(C(=O)N2CCCC(c3cc(C(=O)Nc4ccccc4)no3)C2)cc1 (stereo unspecified)
- Bead autofluor = 3489

CCCCn1nnnc1C1(C)CCC(=O)N1CCOc1ccccc1 (stereo unspecified)
- Bead autofluor = 4262

Next records
SMILES | Bead autofluor
O=C(Cn1ncc2ccccc2c1=O)Nc1cccc(C(F)(F)F)c1 | 3084
Cc1ccc(S(=O)(=O)NC(=O)C2(C)CCN2C(=O)Cc2ccc(C(C)(C)C)cc2)nc1 (stereo unspecified) | 3521
Cn1c(=O)c2cc(NC(=O)NCc3ccccc3)ccc2n1C/C=C/c1ccccc1 | 3826
O=C(/C=C/[C@H]1O[C@@H](n2cnc3c(NC(=O)c4ccccc4)ncnc32)[C@H](O)[C@@H]1O)NC1CCCCC1 | 5501
CC(C)(C)Cc1c(C2CCCCC2)nc2ccc(Cl)cn12 | 6054
CCCCOCCOC(=O)C1OC1(C)c1ccccc1 (stereo unspecified) | 3759
O=C(Nc1nnc([C@@H]2C[C@H](O)[C@@H](CO)O2)s1)c1ccc(Oc2ccccc2)cc1 | 3721
C[C@@H]1CN([C@H](C)CO)C(=O)CCCn2nncc2CO[C@H]1CN(C)S(=O)(=O)c1ccc(Oc2ccccc2)cc1 | 3823
CC(C)N1C(=O)C(=O)N(CC(=O)N2c3ccccc3CC2C)C1=O (stereo unspecified) | 3300
C[C@@H]1CN([C@H](C)CO)C(=O)CCCn2cc(nn2)CO[C@H]1CN(C)C(=O)Nc1ccc2c(c1)OCCO2 | 3454
O=C(COc1ccc(S(=O)(=O)N2CCOCC2)cc1)NCCc1ccc(Cl)cc1 | 3819
Cc1cc(Cl)c2oc(C(=O)N3CCN(c4cnccn4)CC3)c(C)c2c1 | 3439
C[C@@H]1CN([C@H](C)CO)C(=O)c2cc(C#Cc3ccccc3F)cnc2O[C@@H]1CN(C)S(=O)(=O)c1ccccc1F | 3382
COc1ccc(C)cc1NC(=O)Cc1csc(NC(=O)Nc2ccccc2OC)n1 | 3170
CC(=O)Nc1ccc(C(=O)N2CCCCC2c2cc(C(=O)N3CCOCC3)no2)cc1 (stereo unspecified) | 3490
CCN(CC)c1ccc(C(NC(=O)C(C)C)c2ccc3cccnc3c2O)cc1 (stereo unspecified) | 3875
Cc1cc2oc(=O)cc(CN3CCCCCCC3)c2cc1Cl | 5552
O=C(c1[nH]c(C(F)(F)F)nc1-c1ccccc1)N1CCN(Cc2c(F)cccc2Cl)CC1 | 5831
Cc1cc(C)n2nc(CNS(=O)(=O)c3ccc(C(C)(C)C)cc3)nc2n1 | 6180
Cn1c(=O)c2cc(NC(=O)CCc3cccc(Cl)c3)ccc2n1Cc1cccc(C(F)(F)F)c1 | 3660
CC1(C(=O)Nc2ccccc2)CCN1C(=O)CCc1ccc(Cl)cc1Cl (stereo unspecified) | 3986
